# Screening results (PubChem)
# H5N1 CPE: MDCK cell protection from H5N1 avian flu; cytopathic effect, luminescence, 72 h; hits give high values; no value below 0 was filed and about half of the inactive calls have no number; reference of the scale not given here; inhibition, % at 50 µM; 96,000 tested, 0.07% active; in the data active = inhibition above about 25%
# The depositor's hits bear a star; i = inactive. These rows are one share of the data; count on the stated rates, not on these rows.
SMILES,H5N1 CPE
O=C(c1ccco1)N1CCN(Cc2nc3ccc([N+](=O)[O-])cc3c(=O)n2-c2ccccc2F)CC1,2.6
CC(=O)NCC(=O)OCC(=O)Nc1ccc(C(C)=O)cc1,i
Cc1cc(C(=O)OCC(=O)c2cccc([N+](=O)[O-])c2)c2cccc(C)c2n1,0.4
O=C(O)CCCn1nc(-c2ccccc2)c2ccccc21,i
CCC(NS(=O)(=O)c1ccc(C)cc1)C(=O)N1CCC2(O)CCCCC2C1 (stereo not drawn),0.3
C[N+]1(CC(=O)Nc2ccc(F)cc2)CCN(C(=O)c2ccco2)CC1,i
COc1cccc(-n2c(SCC(=O)Nc3cc(C)on3)nc3c([nH]c4ccccc43)c2=O)c1,i
CC(C)C(O)(C#CCN1CCCC1)c1ccccc1 (stereo not drawn),0.2
O=C1c2ccccc2C(=O)N1CCn1nc(Cl)nc1Cl,0.2
O=C(c1ccco1)n1nc(NCc2ccccc2)nc1NCc1ccccc1,0.4
COCC(C)n1c(C)cc(C(=O)CSc2nc3ccccc3c(=O)[nH]2)c1C (stereo not drawn),2.1
CC(CN1CCOCC1)C(=O)c1ccccc1 (stereo not drawn),1.5
Cc1ccc(NC(=O)c2cc(NC(=O)C3CC=CCC3C(=O)O)ccc2N2CCOCC2)cc1 (stereo not drawn),0.3
Cc1ccc(C)c(N(CC(=O)N/N=C/c2ccc(-c3ccc([N+](=O)[O-])cc3)o2)S(=O)(=O)c2ccccc2)c1,0.6
O=C(CN1C(=O)C2CCCCC2C1=O)Nc1nc(-c2ccccn2)cs1 (stereo not drawn),1.5

# Molecules above containing an NH in an aromatic ring, in the order listed:
SMILES,H5N1 CPE
COc1cccc(-n2c(SCC(=O)Nc3cc(C)on3)nc3c([nH]c4ccccc43)c2=O)c1,i
COCC(C)n1c(C)cc(C(=O)CSc2nc3ccccc3c(=O)[nH]2)c1C (stereo not drawn),2.1

# Continued.
SMILES,H5N1 CPE
Cc1nn(CC(=O)Nc2ccc(C(=O)N(C)C)cc2)c(=O)c2ccccc12,i
COc1ccc2c(=O)c(-c3ccccc3)c(C)oc2c1,1.6
COc1ccc(-n2nnnc2SCC(=O)c2ccc(O)c(O)c2)cc1,0.8
CCCOc1ccc(N2CC(C(=O)Nc3ccccc3F)CC2=O)cc1 (stereo not drawn),i
O=C(NCC1CCCO1)c1ccc2nc(N3CCCCC3)sc2c1 (stereo not drawn),0.6
COc1ccc(C(=O)N2CCN(c3c(C)cccc3C)CC2)cc1OC,i
Cc1cc(C)c2c(=O)[nH]c(=O)n(Cc3ccccc3)c2n1,1.9
O=C(Cc1ccccc1)Nc1scc(-c2ccccc2)c1C(=O)N1CCOCC1,0.1
CCCCn1c(O)c(C(CC)=NC(C)c2ccccc2)c(=O)[nH]c1=O (stereo not drawn),1.6
CN1CC(=O)N(CC(=O)Nc2ccc(Cl)c(C(F)(F)F)c2)C1=O,i
CCc1nnc2c3cnn(-c4ccccc4)c3ncn12,1.1
CCOC(=O)N1CCN(C(=O)c2cn(C)c(=O)c3c2c2ccccc2n3C)CC1,1.3
CCCCOC(=O)Nc1sc2nc(C)cc(C)c2c1-n1cccc1,i
CC1(C)CC(=O)CC(=Nc2ccc(C(=O)O)cc2)C1,2.2
Cn1nc(-c2ccccc2)c(-c2nc(-c3ccccc3Cl)no2)c1Cl,i
O=C(COC(=O)c1cnccn1)NCc1ccccc1,i
CCOc1ccc(NC(=O)CN(C2CCCCC2)S(C)(=O)=O)cc1,0.4
Cc1cc2c3c(c1C)C1(C(=O)N3C(C)(C)CC2C)C(C#N)=C(N)OC2=C1C(=O)CC(C)(C)C2 (stereo not drawn),i
CCOC(=O)Cc1c(C)nc2c(-c3ccc(Cl)cc3)c(C)[nH]n2c1=O,0.3
COc1cccc(-c2cc(C(F)(F)F)nc(N3CCN(c4ccccc4)CC3)n2)c1,i
CCCCOC(=O)c1cccc(NC(=O)CC)c1,i
COc1cc(NC(=O)CN2C(=O)NC(C)(CC(C)C)C2=O)cc(OC)c1 (stereo not drawn),1.5
O=C1Nc2ccccc2C12Nc1ccccc1S2 (stereo not drawn),i
O=C(CSc1nnc(-c2ccco2)n1CC1CCCO1)N1CCCCC1 (stereo not drawn),0.2
Cc1cccc(N(NC(=O)C(C)(C)O)C(=O)c2ccccc2)c1,0.4
O=C(CCN1C(=O)c2ccccc2C1=O)Nc1cc(F)ccc1F,i
CCn1cc(C2=NCCO2)c2ccccc21,1.6
CSc1nc(C)c2c(n1)N(c1ccc(C(F)(F)F)cc1)CC2,i
COC(=O)c1ccc(Cn2nnc3ccccc3c2=O)o1,0.8
CC(=O)/C(=N/Nc1cccc(Cl)c1)N1CCOCC1,0.7
CC12CCC(C(=O)NCc3ccc(Cl)cc3)(OC1=O)C2(C)C (stereo not drawn),0.1
Cc1ccc2oc(=O)c3cnn(CC(=O)N4CCCCCC4)c3c2c1,1.4
CCOC(=O)N1CCN(C(=O)c2cn(CC)c3ccc(S(=O)(=O)N4CCCC4)cc3c2=O)CC1,1.3
CCN1CCN(CCNC(=O)c2cn(Cc3ccccc3F)nn2)CC1,0.2
O=S(=O)(Nc1ccc(O)c(CN2CCCCC2)c1)c1ccccc1,i
CCCOc1ccc(NC(=O)C2CC(=O)N(C(C)C)C2)cc1 (stereo not drawn),i
CCOc1ccc(N(CC(=O)NCc2ccccc2)S(C)(=O)=O)cc1,0.7
Cn1c(=O)c2cc(S(=O)(=O)NC(C(=O)Nc3cccc(F)c3)c3ccccc3)ccc2n(C)c1=O (stereo not drawn),0.6
O=C1NCCN1C(=O)N(c1ccccc1)c1ccccc1,0.0
COc1ccccc1NC(=O)CSc1nnc(-c2ccco2)o1,0.2
CCn1cc(C(=O)NCCc2ccccc2)c(=O)c2cc(F)c(N3CCN(C)CC3)cc21,i
COc1ccccc1NC(=O)COc1ccc(/C=N/n2cnnc2)cc1OC,0.1
COc1cc(C2/C(=C(\O)c3ccc4c(c3)CC(C)O4)C(=O)C(=O)N2CCCn2ccnc2)ccc1O (stereo not drawn),1.4
Cc1cc2nc(SCCOC(=O)Nc3ccc(Cl)cc3)nc(C)c2cc1C,i
Nc1ccc2nc(-c3ccccc3)sc2c1,i

# Reprinted from the part before: four entries, then new ones.
SMILES,H5N1 CPE
COc1ccccc1NC(=O)COc1ccc(/C=N/n2cnnc2)cc1OC,0.1
COc1cc(C2/C(=C(\O)c3ccc4c(c3)CC(C)O4)C(=O)C(=O)N2CCCn2ccnc2)ccc1O (stereo not drawn),1.4
Cc1cc2nc(SCCOC(=O)Nc3ccc(Cl)cc3)nc(C)c2cc1C,i
Nc1ccc2nc(-c3ccccc3)sc2c1,i
COc1ccccc1Nc1cc(C(=O)NCCCN2CCOCC2)c2ccccc2n1,i
CCOC(=O)c1c(C)oc2cc(Br)c(OC(=O)N3CCOCC3)cc12,i
O=C(CSc1nnnn1C1CCCCC1)NCc1cccc(C(=O)O)c1,0.4
CCC(C)NC(=O)C(Cc1ccccc1)NS(=O)(=O)c1cccc2nsnc12 (stereo not drawn),0.4
CCOCCc1nnc(N)s1,0.2
Cc1cc(N=Cc2c(O)ccc3ccccc23)no1,i
c1ccc(CNn2c(N3CCOCC3)nc3ccccc32)cc1,0.4
CC(C)(C)n1nnnc1C(c1ccncc1)N1CCN(C2CCCCC2)CC1 (stereo not drawn),0.5
COc1ccc(NC(=O)Nc2ccccc2C(=O)N2CCCC2)cc1,i
O=C(CSc1nnc(-c2ccco2)n1Cc1ccco1)NCc1ccccc1,0.4
COC(=O)c1ccc(CN(c2ccccn2)S(=O)(=O)c2ccccc2)cc1,0.0
Cc1cccc(S(=O)(=O)c2c(N)n(/N=C/c3ccccc3)c3nc4ccccc4nc23)c1,i
COc1ccc(S(=O)(=O)N2CCC(C(=O)NCC3CCCO3)CC2)cc1C (stereo not drawn),0.9
Cc1ccc(-n2c(Cc3ccccc3)nnc2SCC(=O)NNC(=O)Cc2ccccc2)cc1,i
CCOC(=O)N1N=C(c2ccc(C)cc2)CC1(O)C(F)(F)F (stereo not drawn),1.0

# Of the compounds above, these contain a thiophene ring, fused or not.
SMILES,H5N1 CPE
O=C(Cc1ccccc1)Nc1scc(-c2ccccc2)c1C(=O)N1CCOCC1,0.1
CCCCOC(=O)Nc1sc2nc(C)cc(C)c2c1-n1cccc1,i

# The listing continues.
SMILES,H5N1 CPE
Cc1onc(-c2ccccc2)c1C(=O)NCc1cccnc1,1.1
Nc1ncnc2c1cnn2-c1ccccc1,i
Cc1ccc(CNC(=O)NC2CCCCC2)cc1,i
Cc1ccccc1CSc1nncn1N,i
O=C(NCc1ccc2c(c1)OCO2)C1CCN(c2ccc(S(=O)(=O)N3CCCC3)cc2)CC1,1.3
O=S1(=O)CC=C(CSc2nc3ccccc3[nH]2)C1,i
COc1ccc(N/N=C(\C=N\O)C(=O)c2ccc(OC)cc2)cc1,i
CN(C(=O)c1ccc(S(=O)(=O)NC2CCCC2)cc1)C1CCCCC1,0.9
CC1=C(C(=O)N2CCOCC2)C(c2ccsc2)C2=C(CCCC2=O)N1 (stereo not drawn),0.1
CCCc1ccc(OCCNC(C)=O)cc1,i
CCOc1ccc2nc(NC(=O)CCn3cccc3)sc2c1,1.2
COc1ccccc1OCCCn1c(=O)oc2ccccc21,0.3
COc1ccccc1N1CCN(C(=O)c2c(-c3c(Cl)cccc3Cl)noc2C)CC1,1.1
Cn1c(=O)oc2cc(S(=O)(=O)Nc3ccc4c(c3)OCCO4)ccc21,i
CCC(C)[C@H](N)c1nnc(SCC(=O)Nc2cccc(Cl)c2)o1 (stereo partly drawn),i
COc1ccc2[nH]c3c(=O)n(CCCCC(=O)NCCN4CCCC4)c(=S)[nH]c3c2c1,0.9
Cc1cccc(-c2nc3ccccc3c(=O)n2-n2cccc2)c1,0.8
CC(=NC1CC1)C1=C(O)c2ccccc2C1=O,i
CCN(CC)CCNC(=O)C1c2ccccc2C(=O)N(CCOC)C1c1ccc(F)cc1 (stereo not drawn),0.0
Cc1ccccc1Nc1nc(N)nc(CSc2nnc3sc4ccccc4n23)n1,1.7
CC(=O)OC(Cn1nc(C)cc1C)c1ccccc1 (stereo not drawn),0.5
CCOC(=O)c1c(-c2ccc(C)o2)csc1N,i
COc1ccc(-c2cc(-c3cc(F)ccc3O)[nH]n2)cc1OC,0.8
COC(=O)c1cc(NS(=O)(=O)c2ccc(N3CCCCCC3)c([N+](=O)[O-])c2)cc(C(=O)OC)c1,0.8
CCCc1nc(NC2CCCCC2)c(C#N)c2c1COC(C)(C)C2,12
COc1ccc(/C=N/NC(=O)c2nc(Cl)c(Cl)c(N)c2Cl)cc1COc1ccc(F)cc1F,i
COc1ccc2nc(N)sc2c1,1.9
O=C(NC(=S)NCCN1CCOCC1)c1ccc(Cl)cc1Cl,i
CC(C)c1ccc(C(=O)NCCCc2ccccc2)cc1,0.2
Cc1ccc(S(=O)(=O)CCc2nnc(NC(=O)C3CCCO3)s2)cc1 (stereo not drawn),0.8
Cc1noc(C(=O)NCc2ccco2)c1Cl,1.6
COc1ccc(CNc2oc(COc3ccc(Cl)cc3)nc2C#N)cc1,i
O=C(c1ccc2c(=O)n(Cc3ccco3)c(=S)[nH]c2c1)N1CCN(Cc2ccccc2)CC1,0.1
CNC(=S)Nc1cc(OC)ccc1OC,i
N#Cc1c(NCCCO)nc(-c2ccco2)c2c1CCCC2,12
O=C(COC(=O)Cc1ccsc1)NCC12CC3CC(CC(C3)C1)C2,0.2
COc1ccc(S(=O)(=O)N2CCCC(C(=O)NCc3ccco3)C2)cc1Cl (stereo not drawn),0.8
O=C1CC(NNc2ccccc2)C(=O)N1c1cccc(Cl)c1 (stereo not drawn),1.1
COc1ccc(CC(=O)Nc2c3c(nn2-c2cccc(Cl)c2)CS(=O)(=O)C3)cc1,0.1
CC(=O)c1c(C)[nH]c(C(=O)N2CCC3(CC2)OCCO3)c1C,1.1
COC(=O)[C@H](C)NC(=O)NCc1ccc(F)cc1,i
COCCn1c(NCc2ccc(C)cc2)nc2c1c(=O)[nH]c(=O)n2C,i
COc1cccc(NS(=O)(=O)c2c(C)n(C)c(=O)n(C)c2=O)c1,0.9
Cc1c(C(=O)NCc2ccccn2)sc2nc(-c3ccc(F)cc3)cn12,i
COc1ccc(-n2nnnc2SC(C)C(N)=O)cc1 (stereo not drawn),0.1
COc1ccc2cc(CN(CC3COCCO3)S(=O)(=O)c3c(C)cc(C)cc3C)c(=O)[nH]c2c1 (stereo not drawn),i
CCCCNC(=O)c1onc(CSc2ccc(OC)cc2)c1C(=O)O,i
COC(=O)[C@@H](NC(=O)Nc1ccc(OC)cc1)C(C)C,0.6
CC(C)CC(=O)CN1C(=O)C2(OCCO2)c2ccccc21,0.7
Cc1cccc2cc(C#N)c(SCC(=O)NNC(=O)Cc3ccccc3)nc12,i
CC(Sc1nnc(-c2ccc(O)cc2)o1)C(=O)Nc1cccc2ccccc12 (stereo not drawn),i
CCn1ncc(/C=N/O)c1C,0.8
Cn1c(NCC(O)CO)nc2c1c(=O)n(Cc1ccc(Cl)c(Cl)c1)c(=O)n2C (stereo not drawn),1.9
COc1ccccc1NC(=O)N(CCN(C)C)Cc1cc2cc(C)ccc2[nH]c1=O,0.4
Cc1cc(C)n2[nH]c(=O)c(N=Nc3cccc(C(F)(F)F)c3)c2n1,2.8
Cn1c(-c2ccccc2)cnc1N,0.1
COc1ccc(N(C(=O)c2ccco2)S(=O)(=O)c2cccc([N+](=O)[O-])c2)cc1,i
CC1=C(n2nnc3ccccc32)C(c2ccccc2)C(C#N)=C(N)O1 (stereo not drawn),i
C/C(NC1CCCC1)=C(/C#N)C(N)=O,i
